Screening results: PubChem BioAssay, National Center for Advancing Translational Sciences (NCATS)
gsp antagonist – qHTS for Antagonists of gsp, the Etiologic Mutation Responsible for Fibrous Dysplasia/McCune-Albright Syndrome: qHTS; 0.4% of 340,000 active; Potency, µM (doses to about 76.9 µM), inactives show at the highest dose activity change, negative = inhibition, usual class: inhibitors; gsp-mutant cells, cAMP HTRF, 30 min; control for the full effect not named in the record; AID 624288, 2012; active = falling curve of any shape with a large fitted effect; inconclusive = falling curve, mostly with a smaller effect; inactive = flat or rising curve; cell line not stated here;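 further: intracellular cAMP measured with PDE inhibitor Ro 20-1724 present during compound exposure; potency means the concentration at half of the fitted maximal effect; on the % scale 0 is the no-effect control and ±100 the full control effect; nearly all actives have a fitted effect of over 65% in size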
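HTRF cAMP measurement after 30 min RT detection following 30 min, 37C compound treatment alongside […] (added as 300 uM solution) in G418-selected cells seeded at 2000/well and grown 16–24 h.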
ClpP mod – qHTS Assay for Activators of ClpP; AID 651965, 2013; ATP-dependent Clp protease proteolytic subunit (Bacillus subtilis (strain 168)), P80244; purified B. subtilis ClpP, FRET peptide cleavage, 20 min; Potency, µM (doses to about 57.5 µM), for the others: at the top dose activity change, negative = active; 1.9% of 340,000 active; active = well fitted falling curve with a large enough effect; inconclusive = small, poorly fitted or top-dose-only effect; inactive = no such curve, though single readings can be large or run the other way; further: potency means the concentration at half of the fitted maximal effect; the source files actives as falling curves though it sought activators and does not explain the sign; nearly all actives have a fitted effect of over 65% in size; many hits overshoot -100%
Target sequence (P80244 whole entry, looked up): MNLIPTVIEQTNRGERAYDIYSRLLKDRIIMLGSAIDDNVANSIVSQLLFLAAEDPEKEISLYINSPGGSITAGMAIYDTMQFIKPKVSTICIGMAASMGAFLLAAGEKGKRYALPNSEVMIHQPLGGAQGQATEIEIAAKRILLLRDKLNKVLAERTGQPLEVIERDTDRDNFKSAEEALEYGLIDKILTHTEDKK
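FRET quenching reversal measured ClpP activation: 10 microg/mL B. subtilis ClpP at pH 8 with the FRET-FV decapeptide, read at 430 nm after 320 nm excitation. The 20-min minus 0-min signal was scaled between DMSO/no-enzyme wells and ADEP (5.8 microM final).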
Menin-MLL FL inh – qHTS Assay for Inhibitors Targeting the Menin-MLL Interaction in MLL Related Leukemias: Competition With Fluorescein Labeled MLL-derived Peptide; Fluorescence polarization, fluorescein-MLL peptide displacement from menin; FP activity change, % at 61.4 µM; 290,000 tested, under 10 active; inconclusive = falling polarisation curve, or a change in total fluorescence; inactive = total fluorescence flat and polarisation flat or rising; no compound was filed as active; the % refers to the polarisation; negative = inhibition;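 further: % of control where 0% means no effect; inhibitors lower the polarisation; unlabelled MLL peptide was the positive control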
D2 agonist – Beta-Arrestin HTS for Positive Allosteric Modulators of the Human D2 Dopamine Receptor: Agonists; DiscoveRx PathHunter D2 beta-arrestin, luminescence, 90 min; 100% = 57 uM dopamine signal; AID 624465, 2012; 0.084% of 360,000 active; activation, % (concentration not given with the values); in the data active = activation above about 40%; inconclusive = about 15% to 40%; inactive = below about 15%; further: compound concentration not given in the record; the text of the record calls up to 30% inactive
Target sequence (P14416 whole entry, looked up): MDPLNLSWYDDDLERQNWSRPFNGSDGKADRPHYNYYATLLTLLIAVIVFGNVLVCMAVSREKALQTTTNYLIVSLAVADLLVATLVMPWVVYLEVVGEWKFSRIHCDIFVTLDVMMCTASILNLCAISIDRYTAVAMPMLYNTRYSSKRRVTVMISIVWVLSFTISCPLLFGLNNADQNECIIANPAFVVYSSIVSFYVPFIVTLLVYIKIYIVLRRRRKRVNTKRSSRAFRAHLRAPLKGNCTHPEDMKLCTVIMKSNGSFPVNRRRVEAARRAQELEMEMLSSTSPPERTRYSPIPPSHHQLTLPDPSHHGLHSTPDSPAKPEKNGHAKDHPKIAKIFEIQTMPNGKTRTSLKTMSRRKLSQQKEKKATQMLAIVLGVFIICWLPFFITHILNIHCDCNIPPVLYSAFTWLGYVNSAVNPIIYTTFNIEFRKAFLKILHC
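DiscoveRx PathHunter D2 beta-arrestin cells (2,100/well) attached overnight, then compound-stimulated 90 min at 37 C in HBSS/10 mM HEPES/0.1% Tween-20 buffer; beta-galactosidase complementation read by luminescence after 1 h at ambient temperature. Dopamine 57 uM final (EC100) as control.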
Sfp PPTase inh – qHTS Assay for Inhibitors of Bacillus subtilis Sfp phosphopantetheinyl transferase (PPTase) | 4'-phosphopantetheinyl transferase ffp (Bacillus subtilis), Q9F4F7 | Biochemical Sfp PPTase activity, qHTS | Potency, µM, for the others: max response, negative = inhibition, usual class: inhibitors | 3.5% of 310,000 active; active means well fitted inhibition curve with a large enough effect; inconclusive means small, poorly fitted or top-dose-only effect, or another doubt; inactive means no such curve, though single readings can be large or run the other way;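 further: the enzyme is Sfp with the accession as filed and its product quenches rhodamine fluorescence; potency means the concentration at half of the fitted maximal effect; 0% = enzyme reaction without inhibitor and -100% = no enzyme wells; top concentration of the series not given in the record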
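Fluorescence-quenching assay with 15 nM Sfp, 5 uM rhodamine-CoA and 12.5 uM BHQ-2-labelled ybbR peptide in pH 7.6 Hepes/MgCl2 buffer. Enzyme was pre-incubated with compound for 15 min at room temperature. Rate was taken from the 30-min fluorescence change (525/598 nm).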
PINK1 modulator – A Quantitative High throughput Screen to Identify Chemical Modulators of PINK1 Expression | PINK1 immunofluorescence, high-content cytometry, 24 h | Potency, µM (series often up to 76.6 µM), for the others: at the highest dose activation (PINK1 increase), usual class: activators | 0.2% of 410,000 active | AID 624263, 2012; active = well fitted activation curve with a large enough effect; inconclusive = small, poorly fitted or top-dose-only effect; inactive = flat fitted curve, though single readings scatter; cell line not stated here;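 further: potency means the concentration at half of the fitted maximal effect; % of control where 0% means no effect; nearly all actives have a fitted effect of over 65% in size; a mitochondrial uncoupler was the plate control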
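Measures PINK1 amount and localization on or inside mitochondria by immunofluorescence. Stable cells get compounds at 5 concentrations for 24 hours before fixation and staining; CCCP controls included.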
gsp ag – qHTS for Agonist of gsp, the Etiologic Mutation Responsible for Fibrous Dysplasia/McCune-Albright Syndrome: qHTS. AID 624287, 2012. 0.13% of 340,000 active. gsp mutant cells, cAMP HTRF, 30 min; control for the full effect not named in the record. Potency, µM (highest dose often 76.9 µM), for the others: at the top dose activation (cAMP increase), usual class: activators; active = well fitted activation curve with a large enough effect; inconclusive = small, poorly fitted or top-dose-only effect, or another doubt; inactive = no such curve, though single readings can be large or run the other way; cell line not stated here;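 further: phosphodiesterase inhibitor Ro 20-1724 added with compounds to block cAMP breakdown; potency means the concentration at half of the fitted maximal effect; nearly all actives have a fitted effect of over 60% in size; about a fifth of the inactives were tested at one dose only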
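Cells stably selected in G418 were plated at 2000/well, grown 16-24 hr, then given compounds in DMSO with the PDE inhibitor […] (300 uM solution added) for 30 min at 37C; cAMP was read by HTRF.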
The depositor's hits bear a star; ? = inconclusive; . = no result given; [ ] = dose if it differs, or a comment.

SMILES	gsp antagonist	ClpP mod	Menin-MLL FL inh	D2 agonist	Sfp PPTase inh	PINK1 modulator	gsp ag
CN(CCN1CCOCC1)Cc1nc(-c2ccc3c(c2)OCO3)no1	12%	-1.0%	0.5	-3.3	6%	-0.2%	5%
Cc1ccc(S(=O)(=O)N(C)C[C@@H]2Oc3ccc(NS(=O)(=O)c4ccccc4)cc3CC(=O)N([C@@H](C)CO)C[C@H]2C)cc1	-12%	0.1%	.	-3.7	.	-1.2%	.
CCOC(=O)N1CCC(NC(=O)c2cc3c(C)nc4ccccc4c3o2)CC1	-17%	4.0%	3.8	6.2	1%	2.3%	?
COC(=O)c1ccc(C(=O)O)nc1	1%	-1.7%	-0.6	-6.9	79µM*	0.1%	-15%[15.4 µM]
Cc1ccc(C(=O)NCC(=O)NC2CCCC2)cc1	4%	1.3%	-0.3	-2.0	19%	-0.4%	5%[15.4 µM]
CN(CC(=O)NCCCN1CCOCC1)S(=O)(=O)c1ccc(Cl)cc1	-11%	20µM*	.	1.0	.	-0.3%	-21%
CCN(CC)CCNc1cccc2sc3ccccc3c(=O)c12	.	-2.6%	.	-4.6	.	-2.3%	13%
CN(C)Cc1c(C(=O)N/N=C/c2cccc(OCc3c(F)cccc3Cl)c2)nnn1-c1nonc1N	?	-0.8%	.	-2.5	12%	5.9%	-23%
COc1cccc(C(=O)Nc2cccc3cccnc23)c1OC	-2%	-2.3%	-1.0	-1.1	-3%	-0.1%	-39%[inhibitor]
CNC(=O)c1ccc(-c2sc3nc(N4CCOCC4)c4c(c3c2N)CC(C)(C)OC4)o1	-10%	?	2.6	-1.3	79µM*	-0.1%	?
CC(COc1ccccc1)N1CCC(CO)(CCc2ccccc2)CC1 (stereo unspecified)	14%	.	-6.4	-0.6	17%	1.7%	3%[15.4 µM]
COc1ccc(C)cc1N(CC(=O)N/N=C/c1ccccc1C(=O)O)S(=O)(=O)c1ccccc1	4%	-0.1%	0.0	8.5	32%[activator]	0.7%	-2%
COC(=O)CC1[C@@]2(C)C[C@]34OC5(C)OC6(C7CC(=O)OC(c8ccoc8)[C@]7(C)CCC6(O5)[C@]13C)C(OC(C)=O)[C@]4(OC(C)=O)C2OC(C)=O (stereo partly specified)	.	.	4.9	.	11%	1.0%	.
O=c1c2[nH]c3ccc(F)cc3c2ncn1CCCN1CCOCC1	-7%	20µM*	-2.8	-0.7	0%	-0.6%	-30%[inhibitor]
C[C@@H]1CCCCO[C@@H](CN(C)C(=O)c2ccccc2)[C@@H](C)CN([C@H](C)CO)C(=O)c2cc(N(C)C)ccc2O1	.	-2.1%	.	-1.9	.	0.8%	?
Cc1ccc(C)c(NC(=O)CCn2nc(C)cc2C)c1	4%	-2.5%	2.5	2.0	16%	-2.5%	-17%
COc1ccc(OC)c(N(CC(=O)NCCSCc2ccco2)S(=O)(=O)c2ccccc2)c1	?	.	.	0.7	9%	3.5%	11%
CC(Oc1ccccc1)C(=O)Nc1cc(Cl)ccc1-n1cncn1 (stereo unspecified)	-15%	1.6%	.	-0.9	.	1.1%	25%
O=C(CN1CCN(Cc2ccccc2Cl)C1=O)NC1CCCCCC1	-3%	-0.2%	1.8	-3.6	4%	0.6%	10%
CC(C)(C)n1nnnc1C(c1cccnc1)N1CCN(c2cccc(C(F)(F)F)c2)CC1 (stereo unspecified)	23%	-0.3%	-0.4	-3.5	5%	-0.9%	-1%
COc1ccc(N(C(=O)Cn2nnc3ccccc32)C2(C(=O)NC3CCCC3)CCCCC2)cc1	-3%	-8.2%	4.0	-1.8	14%	.	2%
O=C1CN(C(=O)/C=C/c2ccccc2F)c2ccccc2N1	-21%	-2.4%	-1.5	-4.1	-10%	1.4%	22%
Cc1cc2ncc(S(=O)(=O)C(C)(C)C)c(N)n2n1	16%	-2.4%	-1.2	2.7	7%	2.8%	?
Cc1c(CC(=O)NCCCCCC(=O)O)c(=O)oc2c(C)c3oc4c(c3cc12)CCCC4	9%	2.0%	0.5	-4.5	12%	0.0%	9%
C[n+]1cc[nH]c1SCC(=O)c1ccccc1	6%	-0.5%	-0.3	-2.3	-25%	1.4%	?
COc1cccc(CNC(=O)[C@H](CCSC)NC(=O)N2CCn3c2nc2ccccc23)c1	-16%	-1.6%	2.9	2.7	3%	1.1%	25%
O=C(COC(=O)c1ccccc1C(=O)N1CCN(c2ccccc2)CC1)NCc1ccccc1	0%	-1.4%	-25	-9.8	12%	0.6%	1%[15.4 µM]
CC(C)NC(=O)c1c2c(nc3ccccc13)CCCC2	7%	-1.0%	-0.6	-2.5	5%	0.7%	2%
Cc1ccc(OCC(=O)Nc2ccccc2C(=O)NC2CC2)cc1	1%	1.4%	.	-1.0	.	1.4%	-39%[inhibitor]
CC(CN1CCOCC1)OC(=O)c1ccc2c(c1)OCCO2 (stereo unspecified)	-4%	-2.6%	-1.8	-4.9	-6%	-1.4%	21%
Cn1c(Nc2ccc(F)cc2)nc2ccccc21	-9%	.	1.6	-1.3	3%	-0.6%	-3%
Cc1ccccc1OCC(=O)NC(=S)Nc1ccc(N2CCCC2)cc1	2%	.	0.9	4.6	2%	1.6%	?
O=C(CN1C(=O)S/C(=C\c2ccccc2F)C1=O)NC1C=CS(=O)(=O)C1 (stereo unspecified)	14%	-8.2%	3.9	-4.1	-24%	-0.2%	2%
COc1ccc(C(O)(c2ccccc2)C(C(=O)O)c2ccccc2)cc1 (stereo unspecified)	0%	.	.	3.4	.	3.3%	-2%
CCOC(=O)c1sc(NC(=O)c2ccncc2)c(C#N)c1C	?	-10%	3.5	0.2	?	?	22%
COc1ccc(N2CCN(S(=O)(=O)c3cc(-c4cc(C)no4)ccc3C(C)C)CC2)cc1	4%	0.3%	-9.1	1.9	-7%	3.2%	-17%
COc1ccc(C(=O)C2CCCN(C(=O)c3ccc4cc[nH]c4c3)C2)c(C)c1 (stereo unspecified)	-22%	0.0%	-6.4	-1.1	16%	1.0%	8%
Cc1csc(NC(=O)c2ccc(Br)s2)n1	-14%	.	18	-1.3	3%	5.8%	?
COc1ccc(/C=N/NC(=O)c2ccc(NS(=O)(=O)c3cccs3)cc2)cc1	-19%	-11%	.	0.3	.	-1.8%	-39%[inhibitor]
O=C1N[C@@H](Cc2c[nH]c3ccccc23)COC(=O)[C@H](Cc2ccc(F)cc2)C/C=C\C[C@@H]1CC(=O)N(CCO)Cc1ccccc1	-14%	-4.8%	.	-9.0	.	0.9%	?
CC(=O)Nc1ccc(S(=O)(=O)c2cc(O)ccc2O)cc1	2%	.	-0.6	?	-22%	-1.1%	-5%
CCOc1ccccc1NC(=O)COC(=O)c1nc2nccc(C)n2n1	-12%	.	.	-0.3	.	-0.2%	10%
COc1ccc(C(=O)OCCCN(C)C)cc1OC	-18%	-4.0%	-0.8	-0.1	4%	1.5%	?
COc1ccc(/C=C/C(=O)OCC(=O)c2ccc[nH]2)cc1	0%	-4.5%	.	-0.7	.	-1.5%	-18%
Cc1ccc(S(=O)(=O)CCC(=O)OCC(=O)c2cc(C)n(C)c2C)cc1	-4%	0.2%	.	-1.2	.	1.7%	-2%
COc1cccc2c3c(c(=O)[nH]c12)CC(C)(C)O3	1%	-11%	.	-0.4	.	0.3%	-22%
Cc1ccc(C(=O)Nc2ccc3ncccc3c2)cc1	-9%	.	-0.5	0.2	4%	1.1%	-3%[15.4 µM]
CC(C)CNC(=O)CN(C)S(=O)(=O)c1ccc(F)cc1	-9%	-2.1%	1.6	-5.0	22%	-0.3%	-14%[15.4 µM]
Cc1ccc(S(=O)(=O)N2CCN(C(=O)c3ccc(COc4ccccc4)o3)CC2)cc1	-15%	-2.1%	.	-0.1	.	-1.4%	?
COc1ccccc1N1C(=O)CSC1=NC(=O)c1ccccc1	-7%	-0.8%	9.1	-2.3	-13%	1.1%	3%
Cc1csc(C(C#N)C(=O)c2cc3ccccc3o2)n1 (stereo unspecified)	25µM*	-0.9%	26	-2.7	50µM*	?	10%
Cc1ccc(S(=O)(=O)N2CC[C@@H]2C(=O)O)cc1	16%	.	.	0.2	.	-0.9%	-1%[15.4 µM]
O=C(OCc1nnc(-c2ccccc2)o1)c1cc(=O)c2ccccc2o1	2%	-3.2%	3.1	-8.6	8%	-1.0%	-5%
CCCCN1C(=O)CCC(C(=O)O)C1c1ccc([N+](=O)[O-])cc1 (stereo unspecified)	11%	-2.5%	-1.0	-5.6	-6%	2.0%	-4%
COc1ccc(NC(=O)c2cc(N3C(=O)C4C5CCC(C5)C4C3=O)ccc2Cl)c(OC)c1 (stereo unspecified)	-2%	0.8%	3.0	6.7	7%	-0.2%	-8%
CC(=O)c1c(C)[nH]c(C(=O)N2CCCC(C)C2)c1C (stereo unspecified)	2%	1.1%	-3.7	-5.6	11%	2.4%	?
O=C(NCCCN1CCOCC1)c1ccccc1-c1ccccc1	8%	-1.1%	1.2	0.1	10%	-0.2%	0%
O=C(O)c1ccc(F)c(S(=O)(=O)Nc2ccccc2Cl)c1	0%	0.4%	13	-1.2	11%	3.0%[38.3 µM]	-3%
COc1cccc(-c2sc3ccc(OC)cc3c2-c2ccc(OCCN(C)C)cc2)c1	14%	-29%	.	5.4	.	-0.8%	.
